Arbovirus inh: antivirals against arbovirus infection, primary screen, cell-based, full library, 10K replicate subset; arbovirus infection cell-based antiviral screen; inhibition, % at 10 µM; actives 0.37% (n = 200,000); AID 1251, 2008;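 active = inhibition from about 30%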;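 note: bluetongue infection of BSR cells; cell survival read as ATP light after 72 h; 0% = infected wells without compound and 100% = uninfected wells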
YopH PTP inh: YopH tyrosine phosphatase inhibitors, primary screen, biochemical, fluorescence Ex485/Em525; YopH tyrosine phosphatase [Yersinia enterocolitica]; inhibition, %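 (about 10 µM by stock and volumes)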; actives 0.16% (n = 140,000);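 active = inhibition of 50% or more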;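 note: controls were vehicle for no effect and minimum signal wells for full effect; inactives centre near -20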
Mtb growth: M. tuberculosis H37Rv growth inhibitors, H37Rv strain (AID 1626). actives 0.95% (n = 220,000). one-dose inhibition, % at 10 µM; IC50 in µM for titrated hits. M. tuberculosis H37Rv growth inhibition; higher % means a stronger effect;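 active = confirmed in a dose series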;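 note: bacteria incubated seven days before Alamar blue readout; 0% = bacteria only wells and 100% = bacteria with antibiotic wells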
Mtb betalactam: beta-lactam sensitization of Mtb H37Rv, H37Rv | M. tuberculosis H37Rv growth with meropenem, percent inhibition; hits of this screen are not shown here | actives 0.27% (n = 330,000) | inhibition, % at 25 µM | AID 434955, 2010;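 active = about 74% or more and at least 40 points above the plate without the antibiotic, then above 30% in a dose series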;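 note: growth measured after seven days incubation then overnight dye step; 0% = bacteria only wells and 100% = bacteria with antibiotic; twin plates without the antibiotic show which effects depend on it; some results filed as inactive read as strong as hits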
RecA intein inh: Mtb RecA intein splicing inhibitors, primary screen, biochemical, fluorescence, HTS | Protein RecA (Mycobacterium tuberculosis (strain ATCC 25618 / H37Rv)), P9WHJ3 | actives 0.75% (n = 290,000) | AID 2221, 2009 | inhibition, %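 (about 9 µM by stock and volumes)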 | cell-free RecA intein splicing; in the data active = inhibition above about 30%;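 note: 0% = vehicle wells and 100% = reference inhibitor control wells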
Target sequence (P9WHJ3 whole entry, looked up): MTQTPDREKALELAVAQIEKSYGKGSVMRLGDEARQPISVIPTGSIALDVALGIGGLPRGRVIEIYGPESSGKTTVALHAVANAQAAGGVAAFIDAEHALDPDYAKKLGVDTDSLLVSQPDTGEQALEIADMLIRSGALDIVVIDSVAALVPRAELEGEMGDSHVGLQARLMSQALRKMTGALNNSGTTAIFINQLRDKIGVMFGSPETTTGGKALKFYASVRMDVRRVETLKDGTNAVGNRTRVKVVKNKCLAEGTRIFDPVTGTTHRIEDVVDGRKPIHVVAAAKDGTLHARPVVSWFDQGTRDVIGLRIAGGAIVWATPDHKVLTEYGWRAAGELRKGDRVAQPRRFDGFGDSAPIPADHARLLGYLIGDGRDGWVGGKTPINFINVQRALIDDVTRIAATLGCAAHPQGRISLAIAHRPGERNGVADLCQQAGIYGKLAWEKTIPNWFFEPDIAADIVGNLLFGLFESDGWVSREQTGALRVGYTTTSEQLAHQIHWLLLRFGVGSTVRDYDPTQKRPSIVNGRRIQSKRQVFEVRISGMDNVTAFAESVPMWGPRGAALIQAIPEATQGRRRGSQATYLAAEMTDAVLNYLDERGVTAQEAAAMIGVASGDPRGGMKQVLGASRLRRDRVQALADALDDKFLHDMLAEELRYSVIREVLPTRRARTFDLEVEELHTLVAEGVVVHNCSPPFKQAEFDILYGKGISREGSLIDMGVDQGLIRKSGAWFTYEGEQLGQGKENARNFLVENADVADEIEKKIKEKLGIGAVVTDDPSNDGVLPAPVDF
Arbovirus inh repeat: also measured in Arbovirus inh; calls as there; inhibition, %; measured here: 10K subset replicate screen; many hits read low in the repeat;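 first of two repeat runs on a subset; 0% = infected and 100% = uninfected wells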
The depositor's hits bear a star; & = joins results of further samples. The list is partial (hit frequency here may not be typical).

Results for O=C(NCc1cccnc1)NC(C(F)(F)F)C(F)(F)F ?
Arbovirus inh: 1; YopH PTP inh: -41; Mtb growth: -3%; Mtb betalactam: -9; RecA intein inh: -1.4

What do the screens show for `CCOC(=O)c1nc2ccccc2s1`?
Arbovirus inh: 7; YopH PTP inh: -24; Mtb growth: 9%; Mtb betalactam: 94; RecA intein inh: -0.5; Arbovirus inh repeat: 3

Results for O=C(N/N=C/c1cc([N+](=O)[O-])ccc1O)c1ccc(COc2ccc3c(c2)CCC3)o1 ?
Mtb betalactam: 17; RecA intein inh: -0.6

Results for Cc1cccc(NC(=O)CN(c2ccc(F)cc2)S(C)(=O)=O)c1 ?
Arbovirus inh: -4; Mtb growth: -8%; Mtb betalactam: -5; RecA intein inh: 4.8

How did Cc1cccc(/C(N)=N/OC(=O)COc2ccccc2Cl)c1 do in these assays?
Arbovirus inh: -6; YopH PTP inh: -25; Mtb growth: 18%; Mtb betalactam: 1

What do the screens show for `CC(C)(C)NC(=O)/C(=C/c1cccnc1)NC(=O)c1ccco1`?
Mtb growth: -15%; Mtb betalactam: 2; RecA intein inh: -0.2

How did CCOc1ccc(C2CC(c3ccccc3)Nc3nc(N)nn32)cc1 (stereo unspecified) do in these assays?
Arbovirus inh: 3; YopH PTP inh: -33; Mtb growth: -3%; Mtb betalactam: -2; RecA intein inh: -0.5

Results for CCCCNCc1cc(Br)c(OCc2cccs2)c(OC)c1 ?
Arbovirus inh: -32; YopH PTP inh: -28; Mtb growth: 16%; Mtb betalactam: 39; RecA intein inh: -2.0

What do the screens show for `Cc1ccc(/C=N/NC(=O)c2ccoc2C)s1`?
Arbovirus inh: -6; YopH PTP inh: -15; Mtb growth: 2%; Mtb betalactam: -1; RecA intein inh: 2.6

Results for CCOC(=O)c1sc2ncn(C(CC)C(=O)OC)c(=O)c2c1C (stereo unspecified) ?
Arbovirus inh: 3; YopH PTP inh: -47; Mtb growth: -8%; Mtb betalactam: 9

Results for O=C(CC(=O)Nc1ccc(Br)cc1)Nc1ccc(Br)cc1 ?
Mtb betalactam: 0; RecA intein inh: -1.2

What do the screens show for `N#Cc1cnn2c3c(cnc12)C(=O)N1CCc2ccccc2C1C3` (stereo unspecified)?
Arbovirus inh: -8; Mtb growth: -8%; Mtb betalactam: -2; RecA intein inh: -27

What do the screens show for `CCOC(=O)N1CCN(C(=O)CN2C(=O)COc3ccc(C(C)(C)C)cc32)CC1`?
Arbovirus inh: -4; YopH PTP inh: -44; Mtb growth: -9%; Mtb betalactam: 4; RecA intein inh: 1.8

What do the screens show for `Cn1nc2sc3ccccc3n2c(=O)c1=O`?
Mtb growth: -1%; Mtb betalactam: -17; RecA intein inh: 7.5

Results for CC(C)COc1ccc(C(=O)Nc2ncn[nH]2)cc1 ?
Mtb betalactam: 10; RecA intein inh: 2.3

How did Cc1cccc(C)c1NC(=O)Cn1nc(-c2ccc(Cl)s2)ccc1=O do in these assays?
Mtb betalactam: -1; RecA intein inh: 3.2

How did CCCn1nnc(NC(=O)c2ccc(Br)cc2)n1 do in these assays?
Arbovirus inh: 3; YopH PTP inh: -13; Mtb growth: -20%; Mtb betalactam: -1; RecA intein inh: 1.2

How did COc1ccc2nc3ccccc3nc2c1NC(=O)c1ccc(Br)cc1 do in these assays?
Arbovirus inh: -11; YopH PTP inh: -38; Mtb growth: -1%; Mtb betalactam: 3; RecA intein inh: -1.3

How did Cc1cc(SCC(=O)NC(=O)c2cccn2C)nc2ccccc12 do in these assays?
Mtb growth: -2%; Mtb betalactam: -15; RecA intein inh: -12

What do the screens show for `CC(C)(C)N(Cc1ccccc1)C(=O)CN1C(=O)c2ccccc2C1=O`?
Mtb betalactam: -8; RecA intein inh: -1.0

Quoted from the results shown (two entries):
How did Cc1cc(SCC(=O)NC(=O)c2cccn2C)nc2ccccc12 do in these assays?
Mtb growth: -2%; Mtb betalactam: -15; RecA intein inh: -12

What do the screens show for `CC(C)(C)N(Cc1ccccc1)C(=O)CN1C(=O)c2ccccc2C1=O`?
Mtb betalactam: -8; RecA intein inh: -1.0

New compounds follow.
What do the screens show for `CCCCCCn1c(O)c(/C=N/N2CCCCCC2)c(=O)[nH]c1=O`?
Mtb growth: 3%; Mtb betalactam: -4; RecA intein inh: -0.1

How did COc1ccc(N2CC(C(=O)OCC(=O)c3ccccc3)CC2=O)cc1 (stereo unspecified) do in these assays?
Arbovirus inh: 0; YopH PTP inh: -10; Mtb growth: -11%; Mtb betalactam: -7; RecA intein inh: -0.4

What do the screens show for `CC(=O)N1CCN(c2ccccc2NC(=O)COc2cc(C)ccc2C(C)C)CC1`?
Arbovirus inh: -18; YopH PTP inh: 2; Mtb growth: 10%; Mtb betalactam: 2; RecA intein inh: 4.5

Results for COCc1cc(C)n(CC(=O)Nc2ccc(N3CCOCC3)cc2)c(=O)c1C#N ?
Mtb betalactam: -7; RecA intein inh: -2.1

What do the screens show for `Cc1nn2c(=O)c3c4c(sc3nc2n1-c1ccccc1)COC(C)(C)C4`?
Mtb growth: 2%; Mtb betalactam: -9; RecA intein inh: 0.8

What do the screens show for `Cc1ccc(C(=O)CCS(=O)(=O)c2ccc(Br)cc2)cc1`?
Mtb betalactam: 80; RecA intein inh: 1.1

What do the screens show for `Cc1ccc(-c2ccc(CCC(=O)O)n2C(C)C)cc1`?
Arbovirus inh: 4; YopH PTP inh: -36; Mtb growth: 0%; Mtb betalactam: -1; RecA intein inh: -4.5; Arbovirus inh repeat: -1

What do the screens show for `OC(COc1ccc(Cl)cc1)CN1CCCCC1` (stereo unspecified)?
Arbovirus inh: 2; YopH PTP inh: -50; Mtb growth: -10%; Mtb betalactam: -1; RecA intein inh: -3.6

Results for COc1ccc(C(=O)Nc2ccc(S(=O)(=O)N3CCCC3)cc2)cc1 ?
Arbovirus inh: -8; Mtb growth: 3%; Mtb betalactam: 2; RecA intein inh: 8.4

What do the screens show for `COc1cc(C(=O)OC(C)CN2CCOCC2)cc(OC)c1OC` (stereo unspecified)?
Arbovirus inh: 0; YopH PTP inh: -39; Mtb growth: 2%; Mtb betalactam: -8&4; RecA intein inh: 1.0&-0.4

Looked up one by one from the list above (five):
What do the screens show for `Cc1ccc(C(=O)CCS(=O)(=O)c2ccc(Br)cc2)cc1`?
Mtb betalactam: 80; RecA intein inh: 1.1

Results for COc1ccc(C(=O)Nc2ccc(S(=O)(=O)N3CCCC3)cc2)cc1 ?
Arbovirus inh: -8; Mtb growth: 3%; Mtb betalactam: 2; RecA intein inh: 8.4

What do the screens show for `CCCCCCn1c(O)c(/C=N/N2CCCCCC2)c(=O)[nH]c1=O`?
Mtb growth: 3%; Mtb betalactam: -4; RecA intein inh: -0.1

What do the screens show for `OC(COc1ccc(Cl)cc1)CN1CCCCC1` (stereo unspecified)?
Arbovirus inh: 2; YopH PTP inh: -50; Mtb growth: -10%; Mtb betalactam: -1; RecA intein inh: -3.6

What do the screens show for `Cc1ccc(-c2ccc(CCC(=O)O)n2C(C)C)cc1`?
Arbovirus inh: 4; YopH PTP inh: -36; Mtb growth: 0%; Mtb betalactam: -1; RecA intein inh: -4.5; Arbovirus inh repeat: -1

Next records follow:
Results for COc1ccc(CNC(=O)C[C@H]2C(=O)N(c3ccccc3)C[C@@H]2Cc2ccccc2)cc1 ?
Mtb betalactam: -9; RecA intein inh: 1.7

What do the screens show for `c1ccc(-c2ccc(-c3nc(-c4ccccn4)no3)cc2)cc1`?
Arbovirus inh: -26; YopH PTP inh: -18; Mtb growth: 19%; Mtb betalactam: 91; RecA intein inh: 0.0

How did Cc1ccc(NC(=O)C2CCCNC2=O)nc1 (stereo unspecified) do in these assays?
Arbovirus inh: 6; YopH PTP inh: 0; Mtb growth: -3%; Mtb betalactam: -5

Results for COc1ccc(OCc2nc3c4c(ncn3n2)-c2ccccc2CC42CCCC2)cc1 ?
Arbovirus inh: 8; YopH PTP inh: -18; Mtb growth: 4%; Mtb betalactam: 5; RecA intein inh: -0.4

How did O=C1NC(=O)N(c2ccc3c(c2)OCO3)C(=O)/C1=C\c1ccc(N2CCCCC2)o1 do in these assays?
Arbovirus inh: 6; YopH PTP inh: -18; Mtb growth: 9%; Mtb betalactam: 5; RecA intein inh: -2.5

Results for C=CCn1c(C)cc(C(=O)COC(=O)/C=C/c2ccc(OC)cc2)c1C ?
Arbovirus inh: 2; Mtb growth: -6%; Mtb betalactam: 7; RecA intein inh: 0.3

How did O=C(NCCCO)NC12CC3CC(CC(C3)C1)C2 do in these assays?
Arbovirus inh: 4; YopH PTP inh: -16; Mtb growth: 2%; Mtb betalactam: -2; RecA intein inh: -1.5

What do the screens show for `O=C(Nc1ccc(Cl)cc1)Nc1ccccc1Sc1ncc([N+](=O)[O-])s1`?
Mtb growth: 8%; Mtb betalactam: -2; RecA intein inh: 2.9

How did CCn1ccc2cc(OC)ccc2c1=S do in these assays?
Arbovirus inh: -8; YopH PTP inh: 6; Mtb growth: -11%; Mtb betalactam: 6; RecA intein inh: 1.8

Results for O=C(CSc1ccc(-c2ccc(F)cc2)nn1)Nc1ccc2c(c1)OCCO2 ?
Arbovirus inh: -17; YopH PTP inh: -10; Mtb growth: 4%; Mtb betalactam: 3; RecA intein inh: 0.6

Results for COc1cc2c(=O)n(CCCC(=O)NCC3CCCO3)c(=O)n(CC(=O)c3ccc(F)cc3)c2cc1OC (stereo unspecified) ?
Arbovirus inh: 5; Mtb growth: -9%; Mtb betalactam: 0; RecA intein inh: -1.8

Results for COC(=O)Nc1ccc2c(c1)Nc1ccccc1CC2 ?
Mtb betalactam: 9; RecA intein inh: -0.9

Results for O=C(c1ccc(F)cc1)C1CCN(C(=O)c2ccccc2F)CC1 ?
Mtb betalactam: -4; RecA intein inh: 1.2

How did CCN(CC)c1ccc(C(=O)N/N=C/c2ccc(OC)cc2OC)cc1 do in these assays?
Arbovirus inh: -5; Mtb growth: 2%; Mtb betalactam: -2; RecA intein inh: 0.0

How did COc1cccc(C(N)=O)c1OC(=O)Cc1ccccc1F do in these assays?
Mtb betalactam: 12; RecA intein inh: -10

Results for CCOC(=O)CNC(=O)CSc1nnc(NC(=O)c2ccccc2Cl)s1 ?
Arbovirus inh: 1; Mtb growth: 6%; Mtb betalactam: 2; RecA intein inh: -1.3

What do the screens show for `COc1ccccc1CNc1nc2nc(C)c(C)c(=O)n2[nH]1`?
Arbovirus inh: 10; YopH PTP inh: -48; Mtb growth: -5%; Mtb betalactam: -8; RecA intein inh: -0.6

How did O=C(CNS(=O)(=O)c1cccs1)N1CCCC1 do in these assays?
Arbovirus inh: -5; YopH PTP inh: -21; Mtb growth: 2%; Mtb betalactam: -7; RecA intein inh: 1.3

Results for CN(C)c1ccc(NC(=O)CN2C(=O)CN=C(c3ccccc3)c3ccccc32)cc1 ?
Arbovirus inh: -5; YopH PTP inh: -29; Mtb growth: -22%; Mtb betalactam: -4; RecA intein inh: 2.1

Results for Cc1cc(C)c2cc(C#N)c(N3CCCN(C(=S)NCCCN(C)C)CC3)nc2c1 ?
Mtb betalactam: 53; RecA intein inh: -23

Results for CCCCc1c(C)c2cc(C)ccc2[nH]c1=O ?
Arbovirus inh: 4; YopH PTP inh: -19; Mtb growth: -13%; Mtb betalactam: 5; RecA intein inh: -0.3

How did Cc1ccc(CNc2oc(-c3ccco3)nc2S(=O)(=O)c2ccccc2)cc1 do in these assays?
Arbovirus inh: 18; YopH PTP inh: -2; Mtb growth: -1%; Mtb betalactam: 5; RecA intein inh: 8.9

How did CCCCNC(=S)N(CCN(C)C)Cc1cc2cc3c(cc2[nH]c1=O)OCCO3 do in these assays?
Mtb betalactam: 2; RecA intein inh: -4.2

What do the screens show for `CN1/C(=C\C=Nc2cc(S(=O)(=O)N3CCOCC3)ccc2N2CCOCC2)C(C)(C)c2ccccc21`?
Arbovirus inh: 10; YopH PTP inh: 19; Mtb growth: -9%; Mtb betalactam: -2; RecA intein inh: 2.0

How did CN(CC(=O)O)c1ccc(C(F)(F)F)cc1[N+](=O)[O-] do in these assays?
Arbovirus inh: 8; Mtb growth: -5%; RecA intein inh: 1.8

How did Cc1ccn(CC(=O)NC2CCCN(Cc3ccc(CC(C)C)cc3)C2)n1 (stereo unspecified) do in these assays?
Mtb betalactam: -7; RecA intein inh: -0.8

How did CN(CC(=O)NCc1ccc(Cl)cc1)S(=O)(=O)c1cccc2cccnc12 do in these assays?
Arbovirus inh: 4; YopH PTP inh: -14; Mtb growth: 10%; Mtb betalactam: -1

How did CCOC(=O)c1c(C)[n+]([O-])c2ccc3c(non3O)c12 do in these assays?
Arbovirus inh: 8; Mtb growth: 1%; Mtb betalactam: 0; RecA intein inh: 4.5

Screening results deposited in PubChem by several laboratories.
